Screening results: PubChem, several laboratories
LANA-H2B inh – blocks KSHV LANA binding to histone H2A/H2B; inhibition, % (test concentration not listed); actives 0.6% (n = 320,000); Q9QR71; cell-free LANA-H2A/H2B peptide, fluorescence polarization; in the data active means inhibition mostly above about 10%, no sharp cut-off; inactive means mostly below about 6.7%;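 further: stock transfer was 7.5 nL into about 10 µL; 0% = median of vehicle wells and 100% = median of positive control wells; one replicate is shown; the record names a cut of 25% in any replicate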
RanGTP-Impb inh – inhibitors of RanGTP-importin-beta interaction, primary screen, biochemical, FRET, CFP-Ran, YFP-importin-beta, homogeneous. actives 1.1% (n = 300,000). cell-free CFP-Ran/YFP-importin-beta FRET ratio. inhibition, % (concentration not given with the values);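 active means most replicates above 15%; inconclusive means exactly half above 15%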;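 further: 0% = DMSO wells and 100% = Ran loaded with GDP instead of GTP; wells of about 40 µL received 100 nL stock; the first replicate is given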
A1 inh – inhibitors of the anti-apoptotic protein A1, read as caspase activation; MEF A1-2A-BIM cells, Caspase-Glo 3/7 luminescence, 3 h; percent of clofoctol response, vehicle zero; caspase activation, % (test concentration not listed); actives 0.066% (n = 330,000); AID 2462;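 active means over half of replicate activation scores above 10%, or exactly half above 10 with the replicate mean above 10; inconclusive means replicate mean below 10 yet half the replicates above 10; inactive means over half of replicates below 10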;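 further: wells of about 30 µL received 50 nL stock; many hits fall short of the cut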
UCH37 DUB inh – blocks the human deubiquitinase UCH37; Q9Y5K5; purified proteasome/UCH37, Ub-AMC cleavage fluorescence; inhibition, % (no concentration beside the values); actives 0.33% (n = 330,000); AID 588478;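 active means mean of two replicates above 20%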;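 further: 0% = compound-free wells with enzyme and 100% = wells lacking proteasome; stock transfer was 100 nL into about 20 µL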
Target sequence (Q9Y5K5 whole entry, looked up): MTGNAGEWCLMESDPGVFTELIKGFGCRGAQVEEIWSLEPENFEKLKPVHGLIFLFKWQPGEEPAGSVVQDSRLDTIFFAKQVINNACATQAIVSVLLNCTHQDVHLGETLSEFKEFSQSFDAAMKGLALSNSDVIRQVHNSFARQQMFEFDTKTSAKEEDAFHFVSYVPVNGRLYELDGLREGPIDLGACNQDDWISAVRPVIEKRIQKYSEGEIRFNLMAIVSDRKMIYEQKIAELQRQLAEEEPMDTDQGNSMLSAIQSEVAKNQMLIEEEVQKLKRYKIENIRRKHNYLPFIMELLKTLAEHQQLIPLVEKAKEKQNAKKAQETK
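Material: human UCH37 enzyme supplied as purified proteasome complex / Amount: 0.15 nM proteasome as dispensed / Buffer or medium: pH 7.4 Tris-HCl (50 mM) with ovalbumin, ATP-MgCl2, DTT / Times: preincubation 30 min, reaction 25 min, room temperature / Technique: AMC fluorescence from Ub-AMC cleavage, excitation 355 nm, emission 460 nm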
Calb FLC – affects C. albicans growth with fluconazole; C. albicans CaCi-2 (fluconazole-resistant clinical isolate) + fluconazole, Alamar Blue growth, 48 h; actives 0.57% (n = 300,000); growth inhibition, % (test concentration not listed);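 active means most replicates above 75%; inconclusive means exactly half above 75%; inactive means most below 75%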;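 further: all wells also contain fluconazole at 8 µg/ml as a sub-toxic cotreatment; 0% = median of DMSO wells and 100% = median of geldanamycin control wells; wells of about 8 µL received 7.5 nL stock; the first replicate is given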
Beta apoptosis – beta cell apoptosis inhibition; INS-1E cytokine-induced death, ATP luminescence, 48 h; percent of positive-control rescue, neutral wells zero; protection from apoptosis, % (concentration not given with the values); actives 0.8% (n = 300,000); AID 435005;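 active means all replicates at 75% or more, or half of them and the mean; inconclusive means half reach 75% but not the mean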;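 further: 0% = cytokine-treated negative control wells and 100% = positive control rescue; higher means more ATP so stronger rescue from cytokine killing; wells of about 40 µL received 100 nL stock; the first replicate is given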
T cruzi repl – T. cruzi replication inhibition. T. cruzi beta-gal in NIH3T3, luminescence, 90 h. actives 1.4% (n = 300,000). AID 1885. inhibition, % (test concentration not listed);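 active means mean inhibition across valid replicates above about 55%, limit read from the data; inconclusive means mean below that limit but half or more replicates reach it; inactive means mean below it, under half of replicates reach it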;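 further: signal also drops with host cell toxicity which is not excluded here; 0% = plate median of DMSO wells and 100% = zero luminescence signal; higher percent means less beta-gal luminescence so fewer parasites; stock transfer was 50 nL into about 50 µL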
B2AR ag – human beta-2 adrenergic receptor agonism by FAP. P07550. Am2.2-beta2AR cells, FAP receptor internalization, flow cytometry; reference of the scale not given here. response, % (no concentration beside the values). actives 0.43% (n = 340,000). AID 504454;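 active means response above a set limit, near 3 SD of response in nonfluorescent compounds, cut at about 42% in these data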;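 further: stock transfer was 100 nL into about 11 µL; a reference agonist was the positive control; negative values mostly stem from fluorescent compounds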
Target sequence (P07550 whole entry, looked up): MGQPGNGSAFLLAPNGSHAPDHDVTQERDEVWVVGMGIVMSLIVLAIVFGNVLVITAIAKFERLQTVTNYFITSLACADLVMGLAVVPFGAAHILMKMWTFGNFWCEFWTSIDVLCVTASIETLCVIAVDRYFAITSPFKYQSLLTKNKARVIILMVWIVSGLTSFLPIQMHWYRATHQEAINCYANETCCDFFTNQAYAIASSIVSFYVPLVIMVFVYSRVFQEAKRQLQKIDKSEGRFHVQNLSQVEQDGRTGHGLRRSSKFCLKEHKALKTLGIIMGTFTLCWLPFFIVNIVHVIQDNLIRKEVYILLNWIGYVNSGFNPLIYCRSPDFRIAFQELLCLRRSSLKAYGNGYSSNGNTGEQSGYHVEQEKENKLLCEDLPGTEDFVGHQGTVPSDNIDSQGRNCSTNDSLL
* = called active by the depositor; u = inconclusive; x = no result given. Rows are unselected; 4.3% or so of the library scored in one or more.

SMILES	LANA-H2B inh	RanGTP-Impb inh	A1 inh	UCH37 DUB inh	Calb FLC	Beta apoptosis	T cruzi repl	B2AR ag
COc1ccc(C(=O)N/C(=C\c2ccc(SC)cc2)C(=O)NCCCn2ccnc2)cc1OC	-6.1	x	0.9	6.9	x	4	x	-9
CC1CN(S(=O)(=O)c2ccc(C(=O)N(CCCN(C)C)c3nc4cc5c(cc4s3)OCCO5)cc2)CC(C)O1 (configuration not stated)	-3.7	-1.9	-0.1	3.9	-3	x	44	6
CCCC(=O)NCc1cc(-c2nn(C)c(=O)c3ccccc23)ccc1C	-2.4	2.5	0.4	0.5	33	-9	4	-5
OCC1CCCN1C(=S)Nc1ccccc1 (configuration not stated)	-2.1	3.2	0.6	1.2	-9	-13	-10	0
CN1/C(=C\C(=O)c2ccco2)c2ccccc2CC1(C)C	-5.7	-1.0	-0.3	6.5	-18	-3	6	4
COc1ccc(C2C3=C(CC(C)(C)CC3=O)Nc3c2c(=O)n(C)c(=O)n3C)cc1OC (configuration not stated)	0.0	5.0	0.4	5.1	4	-6	-6	-2
O=C(NCC(=O)N(Cc1cccs1)C(C(=O)NC1CCCCC1)c1ccncc1)c1ccco1 (configuration not stated)	-0.6	-0.9	0.4	1.9	-2	0	2	-8
CC(C)(C)C1=C(C#N)C(c2cccnc2)C(C#N)=C(N)O1 (configuration not stated)	-1.7	-0.3	0.3	1.7	3	x	3	21
O=C(Nc1ccccc1)N1CCC(n2c(=O)[nH]c3ccccc32)CC1	1.0	u	0.9	3.3	8	-4	-10	6
Cc1oc(-c2cccc(Cl)c2)nc1CN1CCC(C(=O)N2CCN(c3ccccc3F)CC2)CC1	-0.1	0.9	0.4	1.3	-5	3	20	6
COc1ccc(Nc2nc(=O)c3cc([N+](=O)[O-])ccc3s2)cc1	x	-1.4	x	1.7	5	x	-1	14
Fc1ccccc1Cc1noc(CN2CCN(c3ccc(Cl)cn3)CC2)n1	-2.1	-1.3	0.8	2.6	18	0	5	-1
CCN(CC)CCCNC(=O)C1c2ccccc2Oc2ccccc21	-9.6	0.6	1.1	3.2	-10	-1	15	-4
CCCCOc1ccc(C(=O)N(Cc2ccccc2)C2CCS(=O)(=O)C2)cc1 (configuration not stated)	-2.5	-1.1	0.2	1.2	4	x	8	-16
CCCCN(C)C(=O)c1ccc(S(=O)(=O)N2CCOCC2)cc1	4.3	9.5	-0.4	1.8	-3	-1	6	5
COc1ccc(C(=O)C(C)[n+]2ccc(-c3nnc4n3CCCCC4)cc2)cc1 (configuration not stated)	-0.6	-4.2	0.3	2.9	2	-5	-8	-4
CCCCCCCCC(=O)NCCOc1ccccc1	1.3	0.4	0.0	5.5	-3	-1	-10	4
CC(=O)N/N=C(\C)c1ccc(Br)cc1Br	-2.0	u	0.7	x	-4	-2	-2	-1
CC1CCc2sc(C(=O)N/N=C/C3CCCCC3)cc2C1 (configuration not stated)	-0.3	4.5	-0.3	x	-10	-8	-3	0
COc1ccccc1-c1cc(N)n(S(=O)(=O)c2cccc3nsnc23)n1	6.7	0.7	0.6	2.9	-5	-3	1	3
Cc1ccc(/C=N/NC(=O)c2sccc2OCc2ccc(F)cc2)cc1	2.9	u	-0.9	x	-2	6	12	-39
O=C(Cn1cc(C(F)(F)F)ccc1=O)N1CCN(S(=O)(=O)c2ccc(Cl)cc2)CC1	9.2	-1.0	0.3	1.5	-6	-1	-11	-1
COc1ccccc1C(CNC(=O)c1cc(S(=O)(=O)N2CCOCC2)ccc1C)N1CCCC1 (configuration not stated)	-1.3	x	0.1	4.2	x	-7	x	7
CN(CC(=O)Nc1ccccc1Br)C(=O)CNC(=O)C1CCCCC1	-5.2	x	0.2	2.3	x	0	x	-1
Cc1nc2ccsc2c(=O)n1-c1cccc(Cl)c1	-2.8	4.8	-0.1	5.0	-8	x	-16	2

(next part)
SMILES	LANA-H2B inh	RanGTP-Impb inh	A1 inh	UCH37 DUB inh	Calb FLC	Beta apoptosis	T cruzi repl	B2AR ag
CCOC(=O)C(=O)NC12CC3CC(CC(C3)C1)C2	1.5	-1.5	0.6	-3.4	6	-9	2	-1
C=CCn1c(SCC(=O)N2CCc3ccccc3C2)nc2sc(C)c(C)c2c1=O	1.4	3.8	0.1	7.3	31	7	33	2
Cc1cccc(NC(=O)CSCC(=O)N2CCCc3ccccc32)c1	-1.4	5.6	0.5	-0.2	2	1	0	-5
COC(=O)c1ccccc1NC(=O)c1cc2sccc2n1C	11	2.6	-0.2	-7.7	-28	-2	27	-2
CCCCC(CC)COC(=O)CCCCC(=O)OCC(CC)CCCC (configuration not stated)	46*	x	-0.9	x	x	11	x	0
Cc1cc(=O)n(Cc2ccc(OC(C)C)cc2)c(=S)[nH]1	7.0	1.0	-0.9	2.4	-11	-3	-3	-7
O=C(Nc1ccc(Br)cc1)c1cccc(N2C(=O)CCC2=O)c1	-7.1	4.0	0.7	-1.4	7	x	-1	2
Cc1cc(Br)ccc1N=C1NC(=O)CS1	-1.4	-1.3	1.2	2.9	-17	-1	-4	5
CC(=O)N1CCSc2ccc(S(=O)(=O)NCc3ccc(F)cc3)cc21	3.2	-3.8	-0.5	2.8	-10	-4	1	2
O=S(=O)(Nc1ccc(S(=O)(=O)N2CCCC2)cc1)c1ccccc1Br	1.7	x	-0.1	-1.8	x	9	x	-3
COc1ccc(Br)cc1C(=O)Nc1ccccc1-c1ccccc1	2.6	2.5	0.4	4.7	-4	3	36	-4
Cc1cc(Cl)ccc1NC(=O)CCC(=O)N/N=C/c1cc([N+](=O)[O-])ccc1O	1.5	4.0	0.3	x	-17	18	-17	23
CCOc1ccccc1C(=S)NC1CCCCC1	-3.1	-1.9	-0.3	3.6	4	1	-8	-2
NC(=O)C1CCN(C(=O)c2cccc3ccccc23)CC1	-1.0	-5.2	0.7	-1.4	1	-8	-5	0
COc1ccccc1C1=NOC(Cn2c(NCCOCCO)nc3c2c(=O)n(C)c(=O)n3C)C1 (configuration not stated)	2.2	-0.4	-0.7	10	-2	2	-3	17
Cc1ccccc1NC(=O)c1ccc2c(O)c(S(=O)(=O)c3ccccc3)c(=O)[nH]c2c1	-0.8	2.8	1.6	7.0	-10	x	5	-12
O=C(Cn1cc(CNC(=O)C2CCCCC2)nn1)Nc1cc(C(F)(F)F)ccc1Cl	2.5	x	2.1	-0.8	x	4	x	-14
COc1ccc(OC)c(C2C(C(=O)Nc3nc4ccccc4s3)=C(C)NC3=C2C(=O)CCC3)c1 (configuration not stated)	0.9	7.7	1.4	-24	44	-1	33	26
Cc1ccc(CS(=O)Cc2ccc(C(=O)N3CCN(C4CCCCC4)CC3)o2)cc1 (configuration not stated)	-4.5	0.7	1.7	1.7	-22	-4	26	-3
COc1ccc(/C=C/C(=O)c2cc(F)ccc2OC(=O)c2ccccc2)cc1OC	-0.5	1.1	2.3	0.2	8	3	16	4
CN(C)C1=NCCN1CCC1CCCC1	-5.0	0.1	0.8	3.2	-28	-5	-16	-2
CC1(C)CC(=O)C2=C(C1)N(Cc1cccnc1)C(=O)C2(NC(=O)c1ccc(F)cc1)C(F)(F)F (configuration not stated)	6.1	u	-0.7	1.5	-10	-3	-16	3
CCCCC1=CC2=CC(=O)C(C)(OC(=O)c3ccc(Cl)nc3)C(=O)C2=CO1 (configuration not stated)	2.1	-27	0.7	x	15	2	-2	x
CC1CCN(CCCNC(=O)COc2cc(=O)n(C)c3ccccc23)CC1	-2.6	-4.0	0.5	3.7	17	2	3	1
COc1ccc(C(c2c(N)[nH]c(=S)[nH]c2=O)c2c(N)[nH]c(=S)[nH]c2=O)cc1	-0.4	-2.6	0.1	4.3	-5	-3	6	-2

Further structures:
SMILES	LANA-H2B inh	RanGTP-Impb inh	A1 inh	UCH37 DUB inh	Calb FLC	Beta apoptosis	T cruzi repl	B2AR ag
Cn1cc(CN2CCCCC2C(=O)Nc2ccc(-n3cccn3)cc2)cn1 (configuration not stated)	2.2	0.3	0.2	1.0	-8	-1	5	-15
CC(C)CCn1nnnc1C(c1ccc(F)cc1)N1CCC(C(N)=O)CC1 (configuration not stated)	0.1	-0.3	-0.1	-1.4	1	x	-4	2
CC(=O)c1cccc(NC(=O)C2CCN(C(=O)c3ccc([N+](=O)[O-])cc3)CC2)c1	-2.0	-0.2	0.8	5.4	38	0	5	-1
O=C(NC1CC2CCC1C2)C1CCN(S(=O)(=O)c2ccc(-c3nn[nH]n3)cc2)CC1 (configuration not stated)	2.8	0.3	1.3	-4.7	-14	-2	-20	4
CCOC(=O)CSc1nnc(-c2cc(OC)c(OC)c(OC)c2)o1	0.4	2.7	-0.3	-0.5	2	-2	-6	17
Cc1nc(-c2cccnc2)sc1C(=O)Nc1cccc(C(F)(F)F)c1	6.1	-12	x	7.4	-8	-3	23	-9
CN1CCN(C(=S)NC(=O)/C=C/c2ccccc2Cl)CC1	1.1	-1.4	0.7	1.4	0	-1	6	-7
COc1cccc(C2CC(=O)Nc3cc(OC)c(OC)cc32)c1 (configuration not stated)	-2.2	-1.6	-0.6	2.5	6	1	-10	4
CC(=O)Oc1ccc(N(C(C)=O)S(=O)(=O)c2cccs2)cc1	-6.2	4.3	-0.5	1.8	10	-5	-18	-1
CCCc1nn2c(=O)cc(CSCC(=O)Nc3nnc(C(C)C)s3)nc2s1	4.7	5.6	-0.7	2.0	-1	-3	3	0
COc1cccc(/C=C/C(=O)NCCc2ccc3c(c2)OCCO3)c1	-8.0	0.1	-0.1	1.5	31	-10	19	15
C=CCN1C(=O)c2ccc(C(=O)N3CCN(S(=O)(=O)c4cccc([N+](=O)[O-])c4)CC3)cc2C1=O	-3.4	x	1.3	5.6	x	1	x	1
Cc1occc1C(=O)N=Nc1c(O)n(C)c2ccccc12	-3.2	1.1	-5.4	10	30	9	-10	-7
COC(=O)c1ccc2c(=O)[nH]c(CSc3nc(-c4ccc(F)cc4)cs3)nc2c1	-0.1	4.5	-0.5	x	59	x	-11	64*
Cc1ccc(CN2CCN(c3ccccn3)CC2)s1	6.2	2.3	-0.1	2.2	4	1	-9	-5

Reformatted with bars between the fields: entries from further up.
SMILES | LANA-H2B inh | RanGTP-Impb inh | A1 inh | UCH37 DUB inh | Calb FLC | Beta apoptosis | T cruzi repl | B2AR ag
CCCc1nn2c(=O)cc(CSCC(=O)Nc3nnc(C(C)C)s3)nc2s1 | 4.7 | 5.6 | -0.7 | 2.0 | -1 | -3 | 3 | 0
C=CCN1C(=O)c2ccc(C(=O)N3CCN(S(=O)(=O)c4cccc([N+](=O)[O-])c4)CC3)cc2C1=O | -3.4 | x | 1.3 | 5.6 | x | 1 | x | 1
CCOC(=O)CSc1nnc(-c2cc(OC)c(OC)c(OC)c2)o1 | 0.4 | 2.7 | -0.3 | -0.5 | 2 | -2 | -6 | 17
CC(=O)Oc1ccc(N(C(C)=O)S(=O)(=O)c2cccs2)cc1 | -6.2 | 4.3 | -0.5 | 1.8 | 10 | -5 | -18 | -1
CC(C)CCn1nnnc1C(c1ccc(F)cc1)N1CCC(C(N)=O)CC1 (configuration not stated) | 0.1 | -0.3 | -0.1 | -1.4 | 1 | x | -4 | 2
Cc1ccc(CN2CCN(c3ccccn3)CC2)s1 | 6.2 | 2.3 | -0.1 | 2.2 | 4 | 1 | -9 | -5
